# From PubChem BioAssay
# NPYLR7 ag: mosquito NPYLR7 agonism. 270,000 compounds, 0.15% hits. AID 1259423. HEK293T NPYLR7/Galpha15, GCaMP6s calcium fluorescence. activation, % at 10 µM; in the data active = activation above about 40%;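 also: 0% = vehicle and 100% = reference agonist at the receptor; some compounds past the cut are filed as inactive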
# NPYLR7 ag max-min: also measured in NPYLR7 ag; calls as there; activation, %; measured here: Max-Min RFU normalised activation; some inactives read as strong as hits;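 span of the calcium signal over five minutes; 0% = vehicle and 100% = native peptide agonist; compound fluorescence can raise it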
# The depositor's hits bear a star; & = joins results of further samples. Some of the compounds tested; count on the stated rates, not on these rows.
# Each structure is followed by: NPYLR7 ag, NPYLR7 ag max-min
> O=C(N=C1N=C2C=CC=CN2Cc2ccccc21)C12CC3CC(CC(C3)C1)C2
→ 1.2, -0.5
> CCOC(=O)CCC(=O)Nc1c(C(=O)Nc2ccc(C)c(C)c2)oc2ccccc12
→ -1.7, 6.3
> CCCN(Cn1nc(-c2ccc(OC)cc2)n(CC)c1=S)C1CCS(=O)(=O)C1 (stereo not drawn)
→ -1.8, -2.3
> NC1=NC(c2ccccc2)=NC1(NC(=O)c1ccccc1)C(Cl)Cl (stereo not drawn)
→ -18.6, -25.2
> COCCNC(=O)C(c1cccc(C)c1)N(C)C (stereo not drawn)
→ 4.0, -0.6
> Cc1c(Cl)cccc1NC(=O)CC(NCCC1=CCCCC1)C(=O)O (stereo not drawn)
→ 0.8, 0.3
> COCCNC(=O)CCCn1nc(-c2ccc(F)cc2)ccc1=O
→ 7.3, 7.5
> Cc1ccc(C(=O)Nc2ccc(N3CCN(C(=O)NCC4CCCCC4)CC3)nc2)cc1
→ 16.2, 15.6
> COc1ccc(OC)c(C2c3[nH]c4ccccc4c3CCN2C(=O)c2cccc(SC(F)F)c2)c1 (stereo not drawn)
→ 0.8, -6.4
> COC(=O)NC1CCN(c2ccccc2C(=O)NCc2ccc3c(c2)OCO3)CC1
→ 1.5, 0.0
> O=c1c2c3c(sc2ncn1CC(O)COc1cc(Cl)ccc1Cl)CCCC3 (stereo not drawn)
→ -6.4, -7.6
> CC(=O)N(CCC(=O)Nc1cccc2cn[nH]c12)Cc1ccccc1
→ 0.2, -5.5
> O=C(O)C1C2C=CC3(CN(c4ccccc4)C(=O)C13)O2 (stereo not drawn)
→ -1.3&7.0, -0.2&4.7
> Cc1ccc(NC(=O)N2CCC3(CC2)SCCN3C(=O)CC(C)C)c(C)c1
→ 14.3, 12.8
> O=C(NCC1CCN(Cc2ccc3nonc3c2)C1)C1CCCCC1 (stereo not drawn)
→ 7.9, 7.2
> CC1CCCCN1Cc1nc2c(c(=O)n(C)c(=O)n2C)n1Cc1c(Cl)cccc1Cl (stereo not drawn)
→ 24.5, 17.1
> CC1CN(C(c2ccc(F)cc2)C2Sc3ncnn3C2=O)CC(C)O1 (stereo not drawn)
→ 1.0, 2.0
> CCCCc1ccc(-n2c(C)c(C)n3c4c(=O)n(CCOC)c(=O)n(C)c4nc23)cc1
→ 16.4, 15.7
> COc1ccc(-c2c3c(=O)n(C)c(=O)n(C)c3c3c(COc4ccccc4)nc4ccccc4n23)cc1
→ -13.9, -18.6
> Cn1nnnc1SCCNC(=O)C1(C)CCCCO1 (stereo not drawn)
→ 16.8, 5.5
> CCOc1ccc(-c2nnc(SCC(=O)c3ccccc3F)o2)cc1
→ 9.4, 0.7
> Cc1cn2c3c(=O)n(CCN4CCCCC4)c(=O)n(C)c3nc2n1C1CCCC1
→ 13.0, 8.3
> Cc1ccc(C)c(N=Nc2c(C)[nH]c3ccccc23)c1
→ 4.3, -0.3
> COc1cccc(OCC(=O)N2CC[C@@]3(O)CCCC[C@H]3C2)c1
→ 12.4, 4.7
> CCN(C(=O)c1sc2cccc(F)c2c1C)C1CCS(=O)(=O)C1 (stereo not drawn)
→ 5.9, 2.6
> CCCc1cnc(C)nc1N1CC[C@@H](N)[C@@H](OC)C1
→ 1.1, -5.4
> COCCCNS(=O)(=O)c1cc(Br)sc1C
→ 4.4, 2.8
> O=C(NCCc1nc2c(s1)CCCC2)c1cn(-c2ccccc2)nn1
→ -0.7, 6.3
> Cc1nn(C)c2ncc(C(=O)NCc3ccc(-c4ncc(-c5ccc(N6CCOCC6)cc5)[nH]4)cc3)c(Cl)c12
→ -0.9, 8.5
> C=CCOc1c(OC)ccc2c1CN(CC1CC1)C(=O)CCN2CC(O)COC(C)(C)C (stereo not drawn)
→ 3.2, 7.5
> O=[N+]([O-])c1cc(S(=O)(=O)C(F)(F)F)ccc1N1CCN(c2ccccn2)CC1
→ 4.3, 5.0
> CSc1ccc(CN(C)Cc2nc3ccc(Cl)cc3c(=O)[nH]2)cc1
→ 1.0, -2.0
> CN(CCCC(=O)n1cnc2ccccc21)S(=O)(=O)c1ccc2c(c1)C(=O)c1ccccc1C2=O
→ 5.6, 10.2
> COCn1c2c(c3ccccc31)/C(=N/O)CCC21SCCS1
→ 8.5, 11.9
> Cc1cc(-n2ccnc(SCC(=O)Nc3ccccc3)c2=O)ccc1Br
→ 9.5, 18.5
> CCNC(=S)N(Cc1ccc(OC)c(OCc2nc(CO)cs2)c1)C1CC1
→ 21.4, 17.2
> CC(C)c1nncn1CCNC(=O)C(c1cc(Cl)cc(Cl)c1)N(C)C (stereo not drawn)
→ -4.8, -4.0
> COc1cccc(COC2CN(Cc3ccccn3)C(=O)CN(C(=O)c3cncs3)C2)c1 (stereo not drawn)
→ 11.9, -3.0
> CCN(Cc1nc2ncc(Br)cc2[nH]1)CC(F)(F)F
→ -1.4, 16.5
> O=C([C@H]1C[C@@H](O)[C@H](O)[C@@H]2N=C(Nc3ccc4c(c3)OCO4)S[C@@H]21)N1CCOCC1
→ -6.0, -16.9
> CCOc1ccc(Br)cc1S(=O)(=O)NC1CC(C)(C)NC(C)(C)C1
→ -0.6, 5.1
> CC(C)NC(=O)C1(C)CCN1C(=O)c1ccc(C(C)(C)C)cc1 (stereo not drawn)
→ 11.1, 9.3
> CCC1CCC2(CC1)NC(=O)N(CCC#N)C2=O (stereo not drawn)
→ 4.0, 0.7
> CC(=O)NCCC1CCN(c2nncc(-c3ccc(Cl)cc3)n2)CC1
→ -4.8, -5.3
> CC(C)NCC(O)COc1ccc(CCOCC2CC2)cc1 (stereo not drawn)
→ 0.8&-5.6&-2.8&11.1, 1.9&-11.1&-4.8&-7.1
> CCC(CO)Nc1nc(Nc2ccc(C)c(C)c2)c2nccnc2n1 (stereo not drawn)
→ 4.6, 3.6
> Cc1nc(NC(=O)C2c3ccccc3C(=O)N(C)C2c2ccccc2)sc1C (stereo not drawn)
→ 2.8, 34.0
> CCc1nc2n(n1)C(=O)C(C(c1ccccc1)N1CCC(C(=O)OC)CC1)S2 (stereo not drawn)
→ -1.6, 5.0
> Nc1cc(S(=O)(=O)N2CCCCC2)ccc1S
→ -1.4, -5.1
> Cc1ccccc1C(=O)N(CC(=O)Nc1nc(CC(=O)N2CCCCC2)cs1)CC(C)C
→ 9.6, 13.7
> CCS(=O)(=O)N1CCC(NC(=O)c2ccc(C)cc2C)CC1
→ 2.8, 1.9
> CCc1ccc2oc(=O)cc(CN3Cc4ccccc4CC3C(N)=O)c2c1 (stereo not drawn)
→ 20.8, 13.0
> O=C(O)c1cc(Br)ccc1N=Cc1nc(-c2ccc(Cl)cc2)oc1O
→ 0.0, 6.9
> O=C(NCC1Cc2cc(F)ccc2O1)c1cc2ccccc2s1 (stereo not drawn)
→ 28.4, 23.0
> COc1ccc(/C=C/C(=O)NNC(=O)COc2ccc(Cl)c(C)c2)cc1OC
→ -2.1, -9.2
> O=C(O)[C@H]1C[C@@H](C(=O)N2CCCC2)CN(Cc2ccccc2)C1
→ 8.0, 6.7
> Cc1ccc(-c2cc3c(=O)n(CC(=O)N4CCCc5ccccc54)ccn3n2)cc1
→ 7.8, 5.0
> CC(C)NC(=O)[C@@H]1C[C@H](N)CN1C(=O)CN(C)Cc1ccccc1F
→ 0.4, 1.0
> O=C1CSC(c2ccc(C(F)(F)F)cc2)N1CCO (stereo not drawn)
→ -2.0, -6.7
> O=C(NC(c1ccc(F)cc1)c1cnccn1)C1CCN(Cc2ccc(Oc3ccccc3)cc2)CC1 (stereo not drawn)
→ 7.2, -4.5

# Whole records, looked up by structure. Values in the order: NPYLR7 ag, NPYLR7 ag max-min
# Results for O=C1CSC(c2ccc(C(F)(F)F)cc2)N1CCO (stereo not drawn) → -2.0, -6.7
# Results for O=C(O)c1cc(Br)ccc1N=Cc1nc(-c2ccc(Cl)cc2)oc1O → 0.0, 6.9

# (further entries)
# Each structure is followed by: NPYLR7 ag, NPYLR7 ag max-min
> CC(C)(C)C(=O)NCc1ccc(-c2csc(-c3ccsc3)n2)s1
→ 9.2, 10.7
> N#Cc1ccc(S(=O)(=O)NC2CCc3cc(Cl)ccc32)cc1 (stereo not drawn)
→ 2.1, -10.0
> Cc1csc2nc(O)c(C(=O)NC3CCCCC3)c(=O)n12
→ -4.1, 49.8
> COCCN(C)C(=O)Cn1nnnc1CN(C)C(C)C
→ 10.8, 4.7
> O=C(CCC1CCCN(CC2=Cc3cc(Cl)ccc3OC2)C1)Nc1ccccc1F (stereo not drawn)
→ 3.3, -2.2
> CCN1Cc2cc(F)ccc2N([C@@H]2CCC[C@H]2O)CCC1=O
→ -1.3, 2.3
> c1ccc2oc(CSc3nnnn3C3CC3)nc2c1
→ 4.1, 11.0
> CC[C@@]1(C(=O)OC)C[C@H](C(=O)N2CCCCO2)[C@H](c2ccc(OC)cc2)N1C
→ 5.8, 6.9
> COCCN(CC(=O)N(CCc1c[nH]c2ccccc12)Cc1ccc(OC)c(OC)c1)C(=O)c1cccc([N+](=O)[O-])c1
→ 14.8, 13.8
> Cc1ccccc1OC(C)C(=O)Nc1ncn[nH]1 (stereo not drawn)
→ -2.7, -2.8
> O=C(Nc1ccc2c(c1)CN(Cc1ccsc1)CC2)C1(c2ccccc2)CC1
→ 0.4, -2.2
> CSc1ccc(Cn2c(C)c(C(=O)NCc3cccc(C(F)(F)F)c3)sc2=O)cc1
→ -10.6, -2.8
> CCOC(=O)c1cnc(-c2ccncc2)nc1N(C)CCc1ccccc1
→ -3.4, -1.9
> COc1ccccc1C1CN(Cc2c(C)n(C)n(-c3ccccc3)c2=O)Cc2ccccc2O1 (stereo not drawn)
→ -2.6, -2.2
> Cc1ccc(C(c2ccccc2)N2CCN(C(=O)NC3CCCC3)CC2)cc1 (stereo not drawn)
→ 16.5, 20.6
> CCN(CC)CCN(C(=O)c1cc(C)on1)c1nc2c(F)cccc2s1
→ -4.3, -4.8
> CC(=NCc1ccccc1)c1c(O)n(-c2ccccc2)c(=S)n(-c2ccccc2)c1=O
→ -1.1, -5.1
> O=C(c1ccno1)N(Cc1ccccc1)[C@@H]1C[C@@H]2COCC[C@]2(c2ccccc2)C1
→ 18.2, 21.8
> Cc1cc(C(C(=O)O)N2CCN(c3nc4ccccc4o3)CC2)ccc1F (stereo not drawn)
→ -5.6, -7.5
> CCNC(=O)C1(C)CCCN1C(=O)c1cnc2ccccc2n1 (stereo not drawn)
→ 2.1, -0.3
> Cc1cc(C(=O)N2CCCCC2C(=O)NCc2ccncc2)no1 (stereo not drawn)
→ 5.1, 1.2
> O=C1CN(S(=O)(=O)c2ccc3ccccc3c2)CC2c3ccc(F)cc3CCN12 (stereo not drawn)
→ -1.4, 14.8
> O=C1CCC(CCNCc2cccc(C(F)(F)F)c2)N1CC1CC2C=CC1C21CC1 (stereo not drawn)
→ 31.6, 14.2
> Cc1cc(C)c(CS(=O)c2ccccc2)c(C)c1 (stereo not drawn)
→ -5.9, -7.9
> CCn1c(C)c(C(=O)CN(C2CCCCC2)S(=O)(=O)c2ccc(Br)cc2)c(C)c1C(=O)OC
→ 9.2, 6.4
> C1=C(c2cccc3ccccc23)N2CCN=C2S1
→ -4.3, -4.8
> Cn1c(=O)[nH]c(=O)c2c1nc(N1CCCCC1)n2Cc1ccccc1F
→ 21.6, 16.5
> COc1cccc2c1OCC(Nc1cc(-c3nc(C)no3)ccn1)C2 (stereo not drawn)
→ 6.0, 3.1
> COCCN(Cc1cc(NC(=O)COC)ccc1N(C)C)C(=O)Nc1cccc(F)c1
→ 1.9, 19.2
> O=C(c1cc2n(n1)CCCN(C(=O)c1cccc3c1NCCC3)C2)N1CCCC1
→ 8.7, 1.1
> Fc1ccccc1-n1cc(-c2ccnc(N3CC=CC3)n2)cn1
→ -1.4, -4.1
> CCN(CC)CCN(C(=O)c1ccc([N+](=O)[O-])s1)c1nc2cc3c(cc2s1)OCCO3
→ -3.7, -6.0
> COc1cccc(N2CCN(c3cc(Oc4ccc(Cl)c(C)c4)ncn3)CC2)c1
→ -11.1, -2.7
> O=C(Cn1cnc(-c2nc(-c3cccs3)cs2)c1)Nc1ccc(F)c(Cl)c1
→ -12.1, -14.2
> CCn1cc(CN(C)C2CCCc3ccccc32)cn1 (stereo not drawn)
→ -0.5, -8.1
> CCC(CO)N(Cc1ccsc1)C(=O)c1ccccc1N1CCOCC1 (stereo not drawn)
→ 23.8, 9.0
> OC(COCc1ccccc1)CN(Cc1ccsc1)Cc1ccco1 (stereo not drawn)
→ 21.5, 28.9
> CCc1[nH]n(-c2ccccc2)c(=O)c1C1=C(N2CCC(C)CC2)C(=O)N(C(C)C)C1=O
→ 19.2, 20.2
> O=C(c1cc(-c2ccc(F)cc2)n2nc(-c3ccccc3)cc2n1)N1CCN(c2ccccc2F)CC1
→ -3.4&16.7, -1.2&7.8
> N#Cc1ccc(C(=O)N(CCN2CCOCC2)c2nc3ccccc3s2)cc1
→ 17.0, 8.3
> CC(C#N)(NC(=O)CN1CCCC1c1ncc(-c2cccc(C(F)(F)F)c2)[nH]1)C1CC1 (stereo not drawn)
→ 0.6, 0.4
> CC(C)CCCC1CN(Cc2ccncc2)CCO1 (stereo not drawn)
→ 9.1, 0.3
> CN1C(=O)[C@H](OC(N)=O)[C@@H](C(=O)Nc2ccccc2)C12CCN(C(=O)NC1CCCC1)CC2
→ 7.4, 10.7
> COc1cccc(-n2nnc(-c3nc(-c4ccccc4)cs3)c2C)c1
→ 0.1, -7.6
> COc1ccc(-n2c(SCCCCC(=O)N3CCN(C(=O)C(c4ccccc4)c4ccccc4)C(C)C3)nnc2-c2ccco2)cc1 (stereo not drawn)
→ 13.9, 13.2
> COc1cc(N2C[C@H]3OC(=O)N(CCc4ccccn4)[C@H]3C2)ncn1
→ -18.7, -16.9
> OCC1(CCOc2ccccc2)CCCN(c2ncnc3c2CCC3)C1 (stereo not drawn)
→ -5.9, -7.1
> Cc1cccnc1[C@H](C)NC(=O)Cc1ccc(-n2nnnc2C)cc1
→ 1.4, 0.5
> CCC(=O)NCc1cccc(-c2cccc3cnccc23)c1
→ -0.3, -2.9
> CCOC(=O)c1c(C)[nH]c(C(=O)COc2ncnc3sc(C)c(C)c23)c1C
→ 3.6, 2.5
> CN(C)S(=O)(=O)c1ccc(C(=O)N2CCN=C2SCc2ccc(C(F)(F)F)cc2)cc1
→ 0.3, -2.2
> N#Cc1ccc(C[n+]2ccccc2)o1
→ 3.1, 2.3
